AmpC nodet inh: blocks E. coli AmpC beta-lactamase in absence of detergent; 71,000 tested, 1.8% active; P00811; Potency, µM (doses to about 28.7 µM), inactives show at the top dose activity change, negative = inhibition; AmpC nitrocefin hydrolysis, absorbance 480 nm, no detergent; potencies from a single point are estimates; AID 585; active = falling curve, for most hits resting on a single point; inconclusive = weak or doubtful change; inactive = flat or rising curve; further: % of control where 0% means no effect; a quarter of the inactives give rising signals
Target sequence (P00811 whole entry, looked up): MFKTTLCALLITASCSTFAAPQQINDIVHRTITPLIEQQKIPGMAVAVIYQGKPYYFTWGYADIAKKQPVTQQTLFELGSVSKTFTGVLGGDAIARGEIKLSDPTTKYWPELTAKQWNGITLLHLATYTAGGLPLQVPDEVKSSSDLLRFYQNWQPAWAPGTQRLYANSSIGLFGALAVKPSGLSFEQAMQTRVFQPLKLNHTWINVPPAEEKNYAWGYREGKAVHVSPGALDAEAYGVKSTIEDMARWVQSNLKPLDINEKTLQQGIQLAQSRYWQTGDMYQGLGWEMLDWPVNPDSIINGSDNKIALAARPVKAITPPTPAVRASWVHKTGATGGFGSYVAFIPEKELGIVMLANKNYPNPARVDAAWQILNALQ
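Enzyme, pH 7.0 phosphate. Compound titrations were pre-incubated with AmpC for 15 min at room temperature before nitrocefin (stock 800 uM) addition; product formation was recorded at 480 nm every 20 s for 4 min.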
The depositor's hits bear a star; ? = inconclusive; [ ] = remark or other dose. Potency means the concentration at half of the fitted maximal effect. Some of the compounds tested (hit frequency here may not be typical).

No.	SMILES	AmpC nodet inh
1	Cc1ccc(C)c(N2CCN(C(=O)C3CCN(S(=O)(=O)c4cccc5nsnc45)CC3)CC2)c1	63.5%
2	Oc1ccc2cccnc2c1	-10.3%
3	Cc1cccc(N2CCN(C(=O)c3ccc(N4CCCC4=O)cc3)CC2)c1C	105.0%
4	Cc1cc(C(F)F)n2nc(C(=O)Nc3c(F)cc(F)cc3Br)nc2n1	-4.2%
5	O=C(CSc1nnc2n(C3CCCCC3)c(=O)c3ccccc3n12)OC1CCCCC1	37.7%
6	Cc1cc(C)n(C(=O)CCC(=O)NCc2ccccc2)n1	3.7%
7	Nn1c(SCc2csc(-c3ccccc3)n2)nnc1-c1cccs1	-22.6%
8	C=CCNc1oc(-c2cccc3ccccc23)nc1C#N	-6.2%

Next part:
No.	SMILES	AmpC nodet inh
9	COC[C@H]1OC(=O)c2coc3c2[C@@]1(C)C1=C(C3=O)[C@H]2CCC(=O)[C@@]2(C)C[C@H]1OC(C)=O	8.8%
10	Cc1oc(CC(C)C)c(CN2CCCC2)c1C(=O)O	3.6%
11	O=C(CN1C(=O)CCS(=O)(=O)c2ccccc21)NCc1ccc2c(c1)OCO2	-2.9%
12	CCOC(=O)Cn1c(N2CCCCCC2)nc2c1c(=O)[nH]c(=O)n2C	10.7%
13	COc1ccc(C2C3=C(CC(C)(C)CC3=O)Nc3n[nH]c(C)c32)cc1 (stereo not drawn)	-11.0%
14	O=C1CN(C(=O)c2ccco2)C(c2ccc(F)cc2)c2cc(Cl)ccc2N1 (stereo not drawn)	8.8%
15	CCCN1Cc2cccc(C(=O)NC3CCCC3)c2C1=O	30.6%
16	CCCS(=O)(=O)N1CCCC(C(=O)NC2CCCCC2)C1 (stereo not drawn)	9.3%

Next compounds:
No.	SMILES	AmpC nodet inh
17	CC(=O)Nc1ccc(OCC(O)Cn2nc(C)c(C(C)=O)c2C)cc1 (stereo not drawn)	0.9%
18	C/C(=N\O)C(=O)NCC1CCNCC1	-1.6%
19	c1ccc(CNc2nc(-c3cccnc3)nc3ccccc23)cc1	15.9%
20	O=C(CN1C(=O)c2ccccc2C1=O)Nc1ccc2c(c1)OCO2	7.3%
21	N#Cc1ccccc1Cn1c(=O)n(CCC(=O)NCc2ccco2)c(=O)c2ccccc21	0.9%
22	O=C(Cn1ccc2ccccc2c1=O)NCCC(=O)NC1CCN(Cc2ccccc2)CC1	-9.2%
23	O=C(O)C1CCCN1C(=O)Nc1ccccc1 (stereo not drawn)	2.8%
24	CCC1CCCN1Cn1cnc2c([nH]c3ccc(OC)cc32)c1=O (stereo not drawn)	2.0%

Additional entries
No.	SMILES	AmpC nodet inh
25	C[N+](C)(N)CCC[N+](C)(C)N	-4.8%[5.75 µM]
26	CCC(CC)COC(=O)C(C#N)c1nc2ccccc2nc1N1CCOCC1 (stereo not drawn)	73.6%
27	Cc1c(NC(=O)c2cc(-c3ccco3)on2)c(=O)n(-c2ccccc2)n1C	1.5%
28	CC1CCc2nc(NC(=O)CN3CCOCC3)sc2C1 (stereo not drawn)	13.1%
29	Cc1ccccc1OCCCCc1c(C)n[nH]c1C	50.0%
30	CCN(C(=O)c1cc2cccc(OC)c2oc1=O)c1ccccc1	7.8%
31	CCN(Cc1nc2ccccc2c(=O)[nH]1)Cc1nc2cc(OC)c(OC)cc2c(=O)[nH]1	76.3%
32	CCCc1nnc(SCC(=O)N2CCCC2)n1CC1CCCO1 (stereo not drawn)	-5.0%

New compounds follow
No.	SMILES	AmpC nodet inh
33	CN1CCN(c2nc(-c3ccncc3)nc3ccccc23)CC1	7.5%
34	COc1cc2c(cc1OC)C(=O)N(C)CC2	4.1%
35	N=C1C(c2nc(-c3ccc(F)cc3)cs2)=C(O)CN1CCCN1CCOCC1	146.9%
36	COc1cc(C(=O)Nc2cc(-c3ccccc3)[nH]n2)cc(OC)c1OC	22.2%
37	CCOC(=O)Cn1nnnc1CN(Cc1ccc(OC)cc1)Cc1cc2cc(C)ccc2[nH]c1=O	96.9%
38	N#[N+]c1ccc(Nc2ccccc2)cc1	7.5%[5.75 µM]
39	OC(C#CCN1CCOCC1)c1cccs1 (stereo not drawn)	0.2%
40	COc1ccc(-c2noc(-c3cccc(Cl)c3)n2)cc1OC	91.8%

Continued; the last two above are carried over.
No.	SMILES	AmpC nodet inh
39	OC(C#CCN1CCOCC1)c1cccs1 (stereo not drawn)	0.2%
40	COc1ccc(-c2noc(-c3cccc(Cl)c3)n2)cc1OC	91.8%
41	CCOc1cc(-c2nc(-c3cc(OC)c(OC)c(OC)c3)no2)cc(OCC)c1OCC	28.9%
42	CCCOc1cccc(C(=O)Nc2cc(NC(=O)c3ccco3)ccc2OC)c1	52.5%
43	C=CCN=C1SCC(=O)N1S(=O)(=O)c1ccc(C)cc1	4.2%
44	CN1CCC(n2nccc2N)CC1	2.0%
45	CCOc1ccccc1NC(=O)C1CCCN(S(=O)(=O)c2c(C)[nH]c(=O)[nH]c2=O)C1 (stereo not drawn)	7.3%
46	O=C(CSc1nnc(Cc2cc(=O)[nH]c(=O)[nH]2)n1-c1ccc(Cl)cc1)NC1CCCC1	3.98µM*[single pt active]
47	Cc1ccc(-c2nn(-c3ccccc3)cc2C(=O)N2CCOCC2)cc1	83.6%
48	COc1ccc(CN(Cc2cc3cc(C)ccc3[nH]c2=O)C(=O)N(C)C)cc1	86.4%

(further entries)
No.	SMILES	AmpC nodet inh
49	COc1ccc(C2C(C(=O)c3ccc(C)o3)=C(O)C(=O)N2c2cc(C)on2)cc1OC (stereo not drawn)	-5.2%
50	CCCCNC(=O)Oc1cccc(N2CCCC2=O)c1	-0.2%
51	COc1ccc(CCn2c(-c3ccco3)nc3nc4ccccc4nc32)cc1OC	100.3%
52	COc1ccccc1NCCC(=O)OCC(=O)NCc1ccco1	32.6%
53	CCOc1ccccc1NC(=O)CSc1c(C)n[nH]c1C	3.5%
54	Cc1cc2c(c(=O)n1CCN(C)C)C(c1ccc(Cl)cc1)C(C#N)=C(N)O2 (stereo not drawn)	12.7%
55	COc1ccc(C(=O)N2c3ccc(F)cc3CCC2C)cc1OC (stereo not drawn)	67.4%
56	O=C(Oc1cccc(NC(=O)c2ccco2)c1)c1cccc(S(=O)(=O)N2CCCC2)c1	16.2%

Other compounds follow.
No.	SMILES	AmpC nodet inh
57	Cn1c(=O)c2c(n(Cc3ccccc3)c1=O)NC(=O)C2CC(=O)N1CCc2ccccc2C1 (stereo not drawn)	6.5%
58	CCOC(=O)NCc1ccc2c(c1)OCO2	-7.3%
59	COc1ccc(-c2[nH]nc3oc(=O)cc(C)c23)cc1	-13.6%
60	O=C(O)CSCc1ccc(Cl)cc1	-1.9%
61	CCOC(=O)c1cccc(NC(=O)CSc2nnc(C3CCCCC3)n2CC)c1	63.7%
62	O=C(Nc1ccccc1OC(F)F)c1ccccc1	-5.0%
63	COc1ccc(NC(=O)NCCN2CCN(c3cccc(Cl)c3)CC2)cc1	16.8%
64	O=C(O)c1c(Cl)c(Cl)c(Cl)c(Cl)c1C(=O)Nc1ccc2cn[nH]c2c1	-1.9%[5.75 µM]

Next part.
No.	SMILES	AmpC nodet inh
65	O=S(=O)(O)c1cc(N=[N+]([O-])c2cc(S(=O)(=O)O)c3ccccc3c2)cc2ccccc12	-6.1%[5.75 µM]
66	CCCc1nn(CCc2ccccn2)c(N)c1CC	9.0%
67	CC(=O)c1cccc(NS(=O)(=O)c2c(C)n[nH]c2C)c1	-18.3%
68	C[C@H]1C[C@H]2[C@H]3CCC4=CC(=O)C=C[C@@]4(C)[C@]3(F)[C@H](O)C[C@]2(C)[C@@]1(O)C(=O)COP(=O)(O)O	2.6%[5.75 µM]
69	CCC(=O)Oc1ccc2c(C)cc(=O)oc2c1C	-5.1%
70	O=C(Nc1ccc2ccccc2c1)[C@@H]1C[C@H]1[C@@H](NP(=O)(c1ccccc1)c1ccccc1)c1ccccc1	16.6%
71	CN1CCN(C(=O)c2cc(-c3cccc(Cl)c3)on2)CC1	38.8%
72	COc1ccccc1NC1=C(C)C(=O)CC1	8.0%

Next part
No.	SMILES	AmpC nodet inh
73	Cc1noc(C)c1C(=O)NCCc1ccc(Cl)cc1	4.2%
74	CCN(CC)C(=O)CSc1ccccc1N	1.3%
75	Cc1cccc(N(CC(=O)NCc2ccco2)C(=O)CCC(=O)Nc2ccccn2)c1	41.5%
76	CCOc1ccc(OCC(=O)Nc2ccc(S(=O)(=O)Nc3cc(C)nc(C)n3)cc2)cc1	10.2%
77	O=C1CN(C(=O)OCc2ccccc2)c2ccccc2N1	3.4%
78	c1ccc(CNc2ncnc3ccc(-c4ccc5c(c4)OCO5)cc23)cc1	-1.3%
79	COc1ccccc1N1C(=O)c2ccccc2NC1c1ccncc1 (stereo not drawn)	-6.6%
80	COC(=O)c1ccc2c(=O)sc(N3CCC(C(N)=O)CC3)nc2c1	-5.3%

Going on with the list.
No.	SMILES	AmpC nodet inh
81	Cc1ccc2c(c1)cc(CN(Cc1ccc3c(c1)OCO3)S(=O)(=O)c1ccccc1)c1nnnn12	-11.3%
82	COc1ccc(Cc2nnc(-c3cccc(C)c3)o2)cc1OC	91.3%
83	NC(=O)c1nnn(Cc2cc(Cl)c(C(=O)c3ccc(Cl)cc3)c(Cl)c2)c1N	14.9%[5.75 µM]
84	Cc1csc(NC(=O)Cn2cnnn2)n1	-1.1%
85	Cc1ccc(N(C(C)C(=O)O)S(=O)(=O)c2c(C)n[nH]c2C)cc1 (stereo not drawn)	-4.1%
86	c1ccc(N2CCN(c3c4c(nc5ncnn35)CCC4)CC2)cc1	43.2%
87	CCc1nnc(NC(=O)CSc2nnc(-c3ccccc3O)n2-c2ccc(C)cc2)s1	-5.4%
88	O=C(O)c1cc(=O)[nH]c(=O)[nH]1	-5.8%

(cont.)
No.	SMILES	AmpC nodet inh
89	CC(C)[C@H](NC(=O)OC(C)(C)C)c1nnc(SCc2cccc(F)c2)o1	23.7%
90	c1ccc(Cn2c(SCCN3CCOCC3)nnc2-c2cccnc2)cc1	28.2%
91	CN(CCc1ccccn1)C(=O)CN(C)S(=O)(=O)c1ccc2c(c1)c(=O)n(C)c(=O)n2C	33.0%
92	COc1ccc(CNC(=O)C(c2cccs2)N(C(=O)c2csnn2)C2CC2)cc1 (stereo not drawn)	18.2%
93	CCOC(=O)c1cccc(NC(=O)CCn2nnc3ccccc32)c1	-3.7%
94	CCC(=O)N1CCN(c2ccc(Cl)cc2NC(=O)c2ccc(Br)o2)CC1	-10.2%
95	COc1ccccc1N1CCN(C(=O)c2ccc3nc(-c4ccco4)c(-c4ccco4)nc3c2)CC1	117.2%
96	CS(=O)(=O)Nc1ccccc1C(=O)c1ccccc1	-5.5%

(next part)
No.	SMILES	AmpC nodet inh
97	Nn1c(SCC(=O)NCc2ccccc2)nnc1C1CC1	-11.6%
98	COc1cc(Cl)cc(C#N)c1OCC(=O)O	-5.2%
99	CCOC(=O)Cc1csc(NC(=O)c2ccc(Br)s2)n1	4.5%
100	O=C(O)C1C2CCC(O2)C1C(=O)Nc1cccc(F)c1 (stereo not drawn)	-5.7%
101	COCc1nnc(NC(=O)CCCCCN2C(=O)c3ccccc3C2=O)s1	5.9%
102	Nc1ccc(Sc2nnnn2-c2ccccc2)c(Cl)c1	-8.1%
103	O=C(NC1CCCC1)C1C2C=CC(C2)C1C(=O)N1CCOCC1 (stereo not drawn)	0.1%
104	O=C(NCC1COc2ccccc2O1)C1CCN(S(=O)(=O)c2cccc3nsnc23)CC1 (stereo not drawn)	44.3%

Next part:
No.	SMILES	AmpC nodet inh
105	CCN(CC)S(=O)(=O)c1ccc2c(c1)c(=O)c(C(=O)NCCN(C)CCc1ccccc1)cn2C	?
106	COc1ccc(C(=O)N2CCOCC2)cc1Br	2.5%
107	O=C(Cn1c(S(=O)(=O)Cc2ccccc2)nc2ccccc21)N1CCCCC1	3.8%
108	CC(C)C(NCc1c(Cl)cccc1Cl)C(=O)O (stereo not drawn)	-8.2%
109	CC(C)NS(=O)(=O)c1ccc(OCC(=O)N2CCN(C)CC2)cc1	4.6%
110	CC(C)CC(c1nnnn1CC1CCCO1)N1CCN(C2CCCC2)CC1 (stereo not drawn)	-6.1%
111	CCCCn1c(Oc2ccc(C(=O)OC)cc2)nc2c1c(=O)n(C)c(=O)n2C	8.2%
112	COC(=O)CSc1nsc(SCC(=O)OC)c1C#N	-0.8%

Next structures
No.	SMILES	AmpC nodet inh
113	O=C(O)c1cc(-c2ccc3c(c2)OCO3)nc2ccccc12	-2.0%
114	Cc1c(C(=O)Nc2cccc3cccnc23)oc2ccccc12	7.8%
115	CCOC(=O)C1=C(C)N(C)C(C)=C(C(=O)OCC)C1c1ccccn1	59.3%
116	O=C(CCCCCn1c(=S)[nH]c2cc3c(cc2c1=O)OCO3)N1CCN(C(=O)c2ccco2)CC1	12.9%
117	O=C(NCc1ccco1)c1cc2sccc2n1Cc1ccccc1	-9.5%
118	COc1ncc2nc(-c3ccccc3)c(=O)n(C3CC3)c2n1	2.9%
119	COc1cccc(Nc2cc(C)nc3nc(C)nn23)c1	-7.1%
120	CCOc1ccc(-c2cc(CCCC(=O)NCc3cccnc3)no2)cc1	80.4%

More structures.
No.	SMILES	AmpC nodet inh
121	O=C(NCCCN1CCN(CCCNC(=O)c2ccc(F)cc2)CC1)c1ccc(F)cc1	8.7%
122	COc1ccc(-c2nnc3ccc(SCC(=O)NCc4ccco4)nn23)cc1OC	15.4%
123	Cc1cc2c3nonc3ccc2n1C	1.5%
124	CCOc1cccc2cc(C(=O)Nc3cc(C)on3)c(=O)oc12	15.6%
125	Cc1ccc(NC(=O)c2ccc(S(=O)(=O)NCC3CCCO3)cc2)cc1 (stereo not drawn)	8.4%
126	CN(C(=O)c1cnc(N2CCN(c3ncccn3)CC2)c2ccccc12)c1ccc(Cl)cc1	123.6%
127	Cc1ccc(C)c(OCCCCCn2ccnc2)c1	34.9%
128	COc1ccc(S(=O)(=O)N(CC(=O)N2CCN(C)CC2)C2CCCCC2)cc1OC	33.3%
129	COc1ccc(OCC(=O)N2CCN(c3nnc(-c4ccccc4)c4ccccc34)CC2)cc1	108.2%

Source: PubChem BioAssay
